High-throughput results (PubChem BioAssay)
HSD17B inhib: HSD17B dehydrogenase inhibition; Q99714; recombinant HSD17B10, NADH fluorescence kinetic; many of its hits are not listed in these tables; Potency, µM (titrated, usually from 57.1 µM), without a hit: at the top dose activity change, negative = inhibition, hits mostly inhibitors; 75,000 compounds, 7.6% hits; AID 893; active = well fitted inhibition curve with a large enough effect; inconclusive = small, poorly fitted or top-dose-only effect; inactive = no such curve, though single readings can be large or run the other way;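 also: the protocol describes HADH2 (HSD17B10) and not the HSD17B4 of the title; nearly all actives have a fitted effect of over 70% in size; most hits overshoot -100% by far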
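His-tagged E. coli-expressed HADH2 at 20 nM in 100 mM Tris-HCl pH 9.0 with 0.01 % Tween-20, preincubated 15 min with compound at room temperature. Reaction with 1 mM NAD+ and 90 uM beta-hydroxybutyryl coenzyme A; NADH fluorescence (360/450 nm) read kinetically over 4 min, last minus first point.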
* marks the source's active call; other numbers are inactive results; ? = inconclusive; [ ] = remark or other dose. % is scaled to controls: 0 for no effect and ±100 for the full control effect; potency is read from the fitted curve at half-maximal effect.

SMILES	HSD17B inhib
c1ccc(-c2noc(-c3cccs3)n2)nc1	-5.0%
COc1ccc(OCC(O)Cn2c(=N)n(Cc3ccccc3)c3ccccc32)cc1 (stereo not drawn)	-3.2%
O=C(CN(C(=O)CNS(=O)(=O)c1ccccc1)c1ccc2c(c1)OCCO2)NCc1ccco1	-25.7%
CSc1ncccc1C(=O)OCC(=O)NC(=O)NCCC(C)C	-0.6%
O=C(c1ccccc1F)N(Cc1ccccc1)C1CCS(=O)(=O)C1 (stereo not drawn)	11.3%
Cc1cc(=O)oc(C)c1C(=O)NCc1ccc(F)cc1	1.7%
CCCN(CCC)C(=O)COc1cc(=O)n(CC)c2ccccc12	2.9%
O=C1CSc2ccccc2N1Cc1ccc(F)cc1	-6.6%
COc1ccc(-c2nnc(SCc3nnc(-c4ccccc4)o3)n2C)cc1OC	2.5%
CCNC(=O)C1CC(=O)N(Cc2ccc(F)cc2)C(=Nc2ccc(OC)cc2)S1 (stereo not drawn)	9.6%
COc1ccc(-c2cc(C(=O)NCc3cccnc3)no2)cc1	-27.6%
COc1ccc(NC(=O)C2CCN(C(=O)c3ccccc3)CC2)c(OC)c1	-1.5%
CCc1ccc(-c2nc(-c3ccncc3)no2)cc1	3.4%
CCCn1c(=O)c2ccccc2n2c(SCCOc3ccc(Cl)cc3)nnc12	4.0%
CC1CCCC(C)N1C(=O)CSc1nc2ncnc(N)c2[nH]1 (stereo not drawn)	3.9%
CCOc1cc(C2C(C#N)=C(N)SC(N)=C2C#N)ccc1OCCN1CCOCC1	?
CCOc1ccc(OCC)c(S(=O)(=O)NCc2ccc3c(c2)OCO3)c1	-2.5%
O=C(O)c1cccc(-n2cccc2/C=N/O)c1	?
C(=NC12CN3CN(CN(C3)C1)C2)c1ccc2c(c1)OCO2	6.9%
CC(C)CSc1nc2c(c(=O)[nH]c(=O)n2C)n1CCc1ccccc1	9.1%
N#Cc1ccc(CN2CC3(CCN(C(=O)c4cccc(F)c4)CC3)C2)cc1	5.6%
CCc1ccc(OCC(=O)Nc2ncc3c(n2)CC(C)(C)CC3=O)cc1	9.3%
O=C(NCc1n[nH]c(=S)n1-c1ccc(F)cc1)c1ccc(S(=O)(=O)N2CCCC2)cc1	-7.1%
CC(=O)OC[C@H]1O[C@@H](O/N=C(\C)CCN2CCCCc3nc(C)c(C)cc32)[C@H](OC(C)=O)[C@@H](OC(C)=O)[C@H]1OC(C)=O	4.6%[11.4 µM]
Cc1ccc2[nH]c(=O)c(CN(Cc3ccccc3)Cc3nnnn3C3CCCC3)cc2c1	?

Reformatted with each value named: three of the compounds above
O=C1CSc2ccccc2N1Cc1ccc(F)cc1
  HSD17B inhib: -6.6%
CCNC(=O)C1CC(=O)N(Cc2ccc(F)cc2)C(=Nc2ccc(OC)cc2)S1 (stereo not drawn)
  HSD17B inhib: 9.6%
CCc1ccc(-c2nc(-c3ccncc3)no2)cc1
  HSD17B inhib: 3.4%

The listing picks up with the four entries that preceded the break.
SMILES	HSD17B inhib
CCc1ccc(OCC(=O)Nc2ncc3c(n2)CC(C)(C)CC3=O)cc1	9.3%
O=C(NCc1n[nH]c(=S)n1-c1ccc(F)cc1)c1ccc(S(=O)(=O)N2CCCC2)cc1	-7.1%
CC(=O)OC[C@H]1O[C@@H](O/N=C(\C)CCN2CCCCc3nc(C)c(C)cc32)[C@H](OC(C)=O)[C@@H](OC(C)=O)[C@H]1OC(C)=O	4.6%[11.4 µM]
Cc1ccc2[nH]c(=O)c(CN(Cc3ccccc3)Cc3nnnn3C3CCCC3)cc2c1	?
CC(C)c1c(O)nc(SCCN(C)C)[nH]c1=O	-1.7%
COc1ccc(CCNS(=O)(=O)c2cccc(S(=O)(=O)N3CCCC3)c2)cc1OC	8.4%
COC(=O)c1cccc(NC(=O)CSc2ncn[nH]2)c1	-7.6%
COC(=O)c1cccc(NCN2C(=O)c3ccccc3C2=O)c1	40.7%[activator]
CCOc1ccc(N2CCn3c2nc2c3c(=O)n(CCc3ccccc3)c(=O)n2C)cc1	6.0%
Cc1ccc(-c2nnc(N3CCCCC3)c3ccccc23)cc1S(=O)(=O)N1CCN(C)CC1	-2.2%
COc1ccc(C2CC(=O)c3cnc(N4CCN(Cc5ccccc5)CC4)nc3C2)cc1 (stereo not drawn)	?
O=C(Cn1c(NCCCO)nc2ccccc21)c1ccc(Br)cc1	5.6%
COc1cccc(C(=O)NC(C)C(c2cccs2)N2CCN(C)CC2)c1 (stereo not drawn)	4.6%
COCC(=O)NC1CC2CCCC(C1)N2Cc1ccccc1 (stereo not drawn)	2.8%
CCN(CC)c1ccc(NC(=O)C2CCCN(S(=O)(=O)c3cnc[nH]3)C2)c(C)c1 (stereo not drawn)	-0.5%
CC(=O)SCC(=O)N=c1sc2cc(F)ccc2n1C	6.2%
CCc1cc2c(NCCO)ncnc2s1	-14.0%
Cc1ccc(Cc2c(C)nc3nc(SCC(=O)NCc4ccco4)nn3c2C)cc1	12.6µM*
OCc1nc2ccccc2n1CCCOc1ccc(Br)cc1	-8.5%
CN(CCC#N)C(=O)CSc1ncnc2sc(-c3ccccc3)cc12	?
Cc1ccc(C)c(Cn2nnc3c(=O)[nH]c(C4CCCN(C(=O)C5CCC5)C4)nc32)c1 (stereo not drawn)	3.6%
O=C(O)C1CCCN1S(=O)(=O)c1ccc(Cl)c(Cl)c1 (stereo not drawn)	-0.2%
Nc1nc(N)c(N=Nc2ccc(C(=O)O)c(O)c2)c(N)n1	-28.2%[11.4 µM]
COc1cccc2cc(C(=O)n3ccc(C)n3)c(=O)oc12	-12.6%
COc1cccc(NC(=O)CSc2nnc(Cc3cccn3C)n2-c2ccc(F)cc2)c1	6.2%
O=c1oc2ccccc2c2c1ncn2CCN1CCOCC1	0.6%
Cc1sc2ncnc(NCC(c3ccco3)N(C)C)c2c1C (stereo not drawn)	-2.6%
CCC(Sc1nncn1C)C(=O)Nc1nnc(-c2ccccc2Cl)s1 (stereo not drawn)	-8.0%
C=CCOc1c(OC)cc(Cl)cc1C1NC(=O)NC(C)=C1C(C)=O (stereo not drawn)	-2.8%
The list goes on.
SMILES	HSD17B inhib
COc1ccccc1N=C1SC(C)CN1C(=O)C1CCC1 (stereo not drawn)	4.0%
O=C(Nc1ccc(F)cc1F)c1cc(-c2ccco2)on1	?
Cc1ccc(N2C(=O)c3ccccc3C2=O)cc1Cl	3.1%
Cc1noc(C)c1CSCC(=O)NC1=NCCS1	-5.5%
O=C(c1c(F)cccc1F)N1CCC(O)(c2cccnc2)CC1	-1.1%
COc1cc(-c2c(C#N)c(N)nc3c2CCCC3)ccc1O	31.6µM*
Cc1noc(C)c1COC(=O)c1cc(=O)[nH]c2ccccc12	?
COc1ccccc1CNc1cc(-c2ccccc2CN(C)C)ncn1	3.3%
COc1cc(C2c3c(oc4c(C)cc(C)cc4c3=O)C(=O)N2Cc2cccnc2)cc(OC)c1OC (stereo not drawn)	7.3%
Cc1noc(C)c1-c1cc(Nc2ccccc2)ncn1	6.1%
O=C(CN(c1ccc(F)cc1)S(=O)(=O)c1ccc2c(c1)OCCO2)NCC1CCCO1 (stereo not drawn)	5.9%
CCc1nc(SCC(=O)Nc2ccc3c(c2)OCCO3)c2oc3ccccc3c2n1	-11.2%
c1ccc(-n2ncc3c2ncn2nnnc32)cc1	7.7%
CCCC(=O)c1ccc(N2CCN(C(=O)c3ccccc3Br)CC2)c(F)c1	-17.9%
CCN1C(=O)C(O)(CC(=O)c2ccc3c(c2)OCCO3)c2ccccc21 (stereo not drawn)	2.7%
CCOC(=O)c1oc2ccc3c(c2c1C)C(=O)CC1(CCN(C(=O)OCC)CC1)O3	-14.8%
CC(C)NC(=O)N1CCC2(CC1)CCN(C(=O)c1csnn1)CC2	-3.8%
Cc1nnc(SCSc2nnc(C)s2)s1	-8.5%
COCCn1nnnc1C(c1ccccc1OC)N1CCc2ccccc2C1 (stereo not drawn)	2.1%
Cc1ccc(N2C(=O)SC(N(CC(=O)O)c3cccc(C)c3)C2=O)cc1 (stereo not drawn)	5.1%
CCCC(=O)Nc1cnc(NC(=O)c2cccc(F)c2)cc1C	7.0%
Cc1ccc(C)c(Cn2cnc3c(nnn3-c3ccc(F)cc3)c2=O)c1	12.9%
COC(=O)C1=C(C)NC(C)=C(C(=O)OC)C1c1ccc(NC(C)=O)cc1	25.1µM*
COC(=O)CC1C(C)(C)C(OC(C)=O)C2CC3C4CC(=O)OC(c5ccoc5)[C@]4(C)CCC3[C@@]1(C)C2=O (stereo partly drawn)	-16.3%
CC1CN(S(=O)(=O)Cc2ccccc2)CC(C)O1 (stereo not drawn)	1.4%
Next part.
SMILES	HSD17B inhib
C(=N\n1cnnc1)/c1cn(Cc2ccccc2)c2ccccc12	-11.3%
Cc1ccccc1-n1nc2c(c1NC(=O)c1ccc(Br)o1)CSC2	?
O=C(CCC(=O)N(CC(=O)NC1CCCC1)C1CCCC1)Nc1ccccn1	13.6%
COc1cccc(C(=O)Nc2ccccc2N2CCCC2)c1	-3.1%
CN1CCC(CNC(=O)c2ccc(-n3c(=O)c(=O)[nH]c4ccccc43)cc2)CC1	-9.0%
COc1ncnc2c1NC(=O)CS2	4.5%
COc1cc(C2C(C#N)=C(C)NC3=C2C(=O)CC(C)(C)C3)ccc1OCCO (stereo not drawn)	-6.5%
Cc1cccc(N2C(=O)C3C4C=CC(C4)C3C2=O)c1 (stereo not drawn)	6.6%
COc1ccc(N2CCN(C(=O)CSc3nnc(-c4cccnc4)n3-c3ccccc3)CC2)cc1	12.0%
Cc1cc(CN(C)C)c(O)c(C2(C)CCCCC2)c1	6.4%
COc1ccc(CC2CCOC2=O)cc1 (stereo not drawn)	-1.5%
COc1cccc(OC)c1C(=O)Nn1c(C2CCC2)nc2ccccc2c1=O	2.0%
COc1ccc(-c2nn(-c3ccccc3)cc2C(=O)NCCCn2ccnc2)cc1	-4.1%
Cc1nc(C)c(-c2csc(NCc3ccco3)n2)s1	?
O=C(NCc1ccccc1)C(c1cccs1)N(C(=O)c1csnn1)C1CC1 (stereo not drawn)	-3.3%
Cc1ccc2c(c1)cc(CN(Cc1ccco1)S(=O)(=O)c1ccccc1)c1nnnn12	-0.5%
CC(C)(NO)/C(=N/O)c1cccs1	-2.1%
CCOC(=O)c1c(C)c(C(=O)NC2CCCCCC2)c(C)n1C	3.9%
COCCCNC(=O)c1c(F)c(F)c(F)c(F)c1F	-7.3%
O=C1C(Cl)=C(Sc2nnc3c4ccccc4c4ccccc4c3n2)C(=O)c2ccccc21	?
CC1NC(=O)NC1CCCCCC(=O)NCCc1ccccc1 (stereo not drawn)	-7.4%
N#Cc1nc(COc2ccccc2Cl)oc1N1CCCCCC1	-0.2%
O=C(Nc1ccccc1N1CCN(c2ccc(F)cc2)CC1)C1CCCCC1	0.3%
c1ccc(CSc2nnc(-c3cccs3)o2)cc1	0.6%
CC(=O)N(CN1C(=O)C2CC=CCC2C1=O)c1cccc(Cl)c1 (stereo not drawn)	6.2%
Remaining list, next part:
SMILES	HSD17B inhib
COC(=O)c1cn(NC(=O)C2CCCCC2)c(=O)c2ccccc12	-25.7%
O=C(Nc1nc(-c2ccncc2)cs1)C1COc2ccccc2O1 (stereo not drawn)	31.6µM*
O=C(COC(=O)c1cc[n+]([O-])cc1)Nc1ccc2c(c1)OCCO2	9.4%
CN1C(c2ccc(F)cc2)=CS/C1=C(\C#N)c1nnc2n1-c1ccccc1SC2	-9.1%
O=C(O)C1CCN(c2ncnc3ccc(-c4ccccc4C(F)(F)F)cc23)CC1	-0.3%
CCOc1ccc(N2C(=O)CC(N3CCN(C(=O)CN4CCCC4)CC3)C2=O)cc1 (stereo not drawn)	1.1%
Cc1c(Nc2cc(=O)oc3ccccc23)c(=O)n(-c2ccccc2)n1C	-1.2%
O=C(CCn1cnc2ccccc2c1=O)Nc1ccc(S(=O)(=O)N2CCCCC2)cc1	5.6%
COc1ccc(OC)c(C2=Nn3c(nnc3-c3ccncc3)SC2)c1	-0.2%
COCCn1c(Cc2ccccc2)nnc1SCC(=O)N(C)C	-1.6%
Cc1cc2ncc(C(=O)Nc3ccccc3)c(C)n2n1	9.2%
CCCCCCn1c(SCC(=O)c2ccccc2)nc2c1c(=O)[nH]c(=O)n2C	-6.1%
O=C(Cc1cccs1)Nc1nnc(SCC(=O)NC2CCCCC2)s1	4.5%
COc1ccccc1N1CCN(c2cc(C)nc3nc(C)nn23)CC1	2.2%
COc1cccc(NC(=O)C2CCCN2C(=O)Nc2cccc(F)c2)c1 (stereo not drawn)	6.2%
O=C1[C@@H]2[C@H]3[C@H](O)[C@H](O)C/C(=N/OCc4ccccc4)[C@H]3CC[C@H]2C(=O)N1c1ccc(F)cc1F	3.3%[11.4 µM]
CC(=O)c1ccc(OCC(O)CN2CCN(c3ccccn3)CC2)cc1 (stereo not drawn)	3.3%
O=C(Nc1ccc(N2CCOCC2)cc1)c1cnsn1	-1.7%
COc1ccc(NC(=O)CSc2nnc(CNC(=O)COc3ccc(Cl)cc3)o2)c(OC)c1	8.0%
O=c1ccc2cc(S(=O)(=O)Nc3ccc(F)cc3)ccc2o1	8.9%
c1ccc2c(-c3nc(-c4ccncc4)no3)cccc2c1	?
CC1CCN(C(=O)Cn2c(SCC(=O)Nc3nccs3)nc3ccccc32)CC1	-6.0%
Cc1cccc(-n2ncc3c(N4CCc5ccccc54)ncnc32)c1	?
O=C(O)CCC(=O)N1CCN(c2cccc(Cl)c2)CC1	2.9%
COc1ccc(OC)c(C(c2nnnn2C2CCCC2)N2CCN(c3ccccc3)CC2)c1 (stereo not drawn)	0.8%

4 compounds drawn at random from the list so far, as already listed:
SMILES	HSD17B inhib
O=C(Nc1ccc(N2CCOCC2)cc1)c1cnsn1	-1.7%
COC(=O)c1cn(NC(=O)C2CCCCC2)c(=O)c2ccccc12	-25.7%
O=C(Cc1cccs1)Nc1nnc(SCC(=O)NC2CCCCC2)s1	4.5%
c1ccc2c(-c3nc(-c4ccncc4)no3)cccc2c1	?

This is a subset; rates above refer to the full screens.
